From PubChem
Mtb hypoxia inh: PubChem AID 1159583; fluorescence inhibition, % (test concentration not listed); M. tuberculosis hypoxia-regulated fluorescent reporter, fluorescence; 300,000 tested, 0.1% active;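 active = 35 to 45% if threefold the growth effect, above 45% if 1.5-fold the growth effect; inactive = the rest, general growth blockers included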;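 note: wells of about 50 µL received 100 nL stock; 0% = vehicle wells and 100% = reference inhibitor wells; whole bacteria with a GFP reporter of the hypoxia response; strong numbers were not always called active; many hits fall short of the cut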
Autofluor counter: flagged as autofluorescent in microsphere protease counterscreen | compound autofluorescence counterscreen, microsphere flow cytometry; hits give high values | fluorescence intensity (no concentration beside the values) | 360,000 tested, 3.1% active;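 active = at least 3 SD above the mean of all compounds, about 16000 in these data; inconclusive = too few beads counted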;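 note: 100 nL of 1 mM stock went into each well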
Sa ugtP lethal: growth inhibition of ugtP-null S. aureus, primary screen, RN4220 ugtP deletion, OD600; AID 1259309, 2017; 16 h; some inactives read as strong as hits; growth inhibition, % (concentration not given with the values); 330,000 tested, 0.54% active;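 active = z-score under -3 and OD600 up to 0.15 on both plates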;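 note: plate controls were untreated wells for no effect and antibiotic for full effect; wells of about 80 µL received 100 nL stock; the first replicate is given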
BJeLR lethal: MLPCN primary cell-based screen for lethality selective to Ras in HRASV12 cells; 300,000 tested, 0.17% active; AID 1554, 2009; inhibition, % (test concentration not listed); BJeLR (HRASV12) viability, CellTiter-Glo ATP luminescence, 48 h; reference of the scale not given here;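 active = replicate mean above 50%; inconclusive = above 50% but judged a plate artefact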;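 note: 50 nL library stock added to about 25 µL; numbers are from one replicate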
Sa RN4220 lethal: growth inhibition of S. aureus RN4220, primary screen, OD600. inhibition, % (no concentration beside the values). 16 h. 330,000 tested, 0.33% active;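 active = z-score of -3 or lower and OD600 up to 0.18 on both plates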;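 note: plate controls were untreated cells for no effect and reference antibiotic for full effect; stock transfer was 100 nL into about 80 µL; one replicate is shown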
PrP 5UTR inh: inhibition of PrP 5' UTR reporter expression | cell-based PrP 5' UTR mRNA reporter, plate reader | 340,000 tested, 0.35% active | inhibition, % (no concentration beside the values);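 active = every replicate at 50% or more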;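 note: 0 = median of the neutral control wells; tested in H4 reporter cells; numbers are from one replicate; inactives centre near -14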
Mtb hypoxia inh growth: further read-out of Mtb hypoxia inh, marked with its call; growth inhibition, %; measured here: M. tuberculosis growth (absorbance);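 0% = vehicle and 100% = reference antibiotic; read after six days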
Starred values were filed as active, the others as inactive; & = joins results of further samples.

How did CC(C)(C)c1ccc(C(=O)NCC(=O)OCC(=O)Nc2nc(-c3ccc(F)cc3)cs2)cc1 do in these assays?
Mtb hypoxia inh: -11; Autofluor counter: 4140; Sa ugtP lethal: 0; BJeLR lethal: 21; Sa RN4220 lethal: -2.8; PrP 5UTR inh: -29; Mtb hypoxia inh growth: 5

Results for Cc1cc(C)c(-c2cc(C(F)(F)F)no2)c(=O)[nH]1 ?
Mtb hypoxia inh: 0; Autofluor counter: 17034*; Sa ugtP lethal: 1; BJeLR lethal: -4; Sa RN4220 lethal: 4.2; PrP 5UTR inh: -7; Mtb hypoxia inh growth: 7

How did O=C(CN1C(=O)c2ccccc2S1(=O)=O)N1CCc2ccccc2C1 do in these assays?
Autofluor counter: 3606; Sa ugtP lethal: 6; BJeLR lethal: -4; Sa RN4220 lethal: 2.1; PrP 5UTR inh: -4

Results for CC(=O)Nc1ccc(NC(=O)CSc2nnnn2C2CCCCC2)cc1 ?
Mtb hypoxia inh: -2; Autofluor counter: inconclusive; Sa ugtP lethal: -1; BJeLR lethal: 1; Sa RN4220 lethal: 0.4; PrP 5UTR inh: -13; Mtb hypoxia inh growth: 8

How did O=C(NC(=S)Nc1cccc(NC(=O)c2ccc(Cl)cc2Cl)c1)c1cccs1 do in these assays?
Autofluor counter: 11003; BJeLR lethal: -3; PrP 5UTR inh: -40

How did CCOC(=O)Cc1csc(SCC(=O)c2c(N)n(CC(C)C)c(=O)n(C)c2=O)n1 do in these assays?
Mtb hypoxia inh: 3; Autofluor counter: 15451; Sa ugtP lethal: -3; BJeLR lethal: 17; Sa RN4220 lethal: -1.6; PrP 5UTR inh: -4; Mtb hypoxia inh growth: 5

Results for CC(=O)Oc1ccc(C(=O)Nc2ccccc2C(=O)N2CCCC2)cc1 ?
Mtb hypoxia inh: 3; Autofluor counter: 4472; Sa ugtP lethal: 1; BJeLR lethal: 4; Sa RN4220 lethal: 4.7; PrP 5UTR inh: -6; Mtb hypoxia inh growth: -1

Results for CCCc1cc(C(=O)N2CCN(c3ccccc3C)CC2)cs1 ?
Mtb hypoxia inh: 9; Autofluor counter: 10285; Sa ugtP lethal: 16; BJeLR lethal: -11; Sa RN4220 lethal: 3.5; PrP 5UTR inh: -13; Mtb hypoxia inh growth: 0

Results for O=C1NC[C@@H](Cc2cccc3ccccc23)N(CC2CCCCC2)C1=O ?
Autofluor counter: 3657; BJeLR lethal: 0; PrP 5UTR inh: -27

How did Clc1ncnc2scc(C3COc4ccccc4O3)c12 (stereo not drawn) do in these assays?
Mtb hypoxia inh: 9; Autofluor counter: 5266; Sa ugtP lethal: 21; BJeLR lethal: 5; Sa RN4220 lethal: 11; PrP 5UTR inh: -24; Mtb hypoxia inh growth: 13

Results for O=C(NC1CC(=O)N(c2ccc(F)cc2)C1)N1CCN(C(=O)c2ccco2)CC1 (stereo not drawn) ?
Mtb hypoxia inh: 4; Sa ugtP lethal: 11; BJeLR lethal: -5; Sa RN4220 lethal: 4.0; PrP 5UTR inh: -14; Mtb hypoxia inh growth: 0

What do the screens show for `O=C(CCc1ccccc1)Nc1cccc(S(=O)(=O)N2CCOCC2)c1`?
Mtb hypoxia inh: 8; Autofluor counter: 3596; Sa ugtP lethal: -3; Sa RN4220 lethal: -0.7; PrP 5UTR inh: -17; Mtb hypoxia inh growth: 1

What do the screens show for `CCOc1ccc(-c2nc(C#N)c(N3CCN(CC)CC3)o2)cc1`?
Mtb hypoxia inh: 23; Autofluor counter: 19650*; Sa ugtP lethal: -8; BJeLR lethal: 2; Sa RN4220 lethal: 3.1; PrP 5UTR inh: -9; Mtb hypoxia inh growth: 11

What do the screens show for `CCCC1CCC(=NNC(=O)CNc2ccc(OC)cc2)CC1` (stereo not drawn)?
Mtb hypoxia inh: 11; Autofluor counter: 6768; Sa ugtP lethal: 10; BJeLR lethal: 3; Sa RN4220 lethal: 4.4; PrP 5UTR inh: -18; Mtb hypoxia inh growth: 10

Results for Cc1nnc(SCC(=O)Nc2nnc(-c3ccccc3)o2)s1 ?
Mtb hypoxia inh: 3; Autofluor counter: inconclusive; Sa ugtP lethal: 1; BJeLR lethal: -1; Sa RN4220 lethal: 1.4; PrP 5UTR inh: -32; Mtb hypoxia inh growth: 2

What do the screens show for `CCCCNc1c(-c2ccc(OC)c(Sc3ccc(OC)cc3)c2)nc2ccc(Cl)cn12`?
Mtb hypoxia inh: 2; Autofluor counter: 4104; Sa ugtP lethal: -37; Sa RN4220 lethal: -1.6; PrP 5UTR inh: 0; Mtb hypoxia inh growth: 9

How did COc1ccc(CNC(=O)CN(C(=O)c2cc3sccc3n2C)C2CCCC2)cc1 do in these assays?
Mtb hypoxia inh: 17; Autofluor counter: 9333; Sa ugtP lethal: 10; BJeLR lethal: -3; Sa RN4220 lethal: -4.0; PrP 5UTR inh: -19; Mtb hypoxia inh growth: 13

What do the screens show for `O=C(CSc1nnc(NC(=O)c2ccco2)s1)NC1CCCCC1`?
Mtb hypoxia inh: 7; Autofluor counter: 7892; Sa ugtP lethal: 5; BJeLR lethal: 0; Sa RN4220 lethal: 3.6; PrP 5UTR inh: -17; Mtb hypoxia inh growth: 12

Results for CCCCCCCn1c(=O)c(C(=O)Nc2cnccn2)c(O)c2ccccc21 ?
Sa ugtP lethal: 98*; BJeLR lethal: -44; Sa RN4220 lethal: 98*; PrP 5UTR inh: 4

What do the screens show for `CC(C)(C)C(=O)[C@@H]1[C@@H]2C(=O)N(C3CCCCC3)C(=O)[C@@H]2[C@H]2c3ccccc3C=CN12`?
Mtb hypoxia inh: 8; Autofluor counter: 4366; Sa ugtP lethal: -7; Sa RN4220 lethal: 2.8; PrP 5UTR inh: -3; Mtb hypoxia inh growth: 5

Four compounds drawn at random from those above:
Results for CCCc1cc(C(=O)N2CCN(c3ccccc3C)CC2)cs1 ?
Mtb hypoxia inh: 9; Autofluor counter: 10285; Sa ugtP lethal: 16; BJeLR lethal: -11; Sa RN4220 lethal: 3.5; PrP 5UTR inh: -13; Mtb hypoxia inh growth: 0

Results for CCCCCCCn1c(=O)c(C(=O)Nc2cnccn2)c(O)c2ccccc21 ?
Sa ugtP lethal: 98*; BJeLR lethal: -44; Sa RN4220 lethal: 98*; PrP 5UTR inh: 4

Results for Cc1nnc(SCC(=O)Nc2nnc(-c3ccccc3)o2)s1 ?
Mtb hypoxia inh: 3; Autofluor counter: inconclusive; Sa ugtP lethal: 1; BJeLR lethal: -1; Sa RN4220 lethal: 1.4; PrP 5UTR inh: -32; Mtb hypoxia inh growth: 2

How did O=C(CN1C(=O)c2ccccc2S1(=O)=O)N1CCc2ccccc2C1 do in these assays?
Autofluor counter: 3606; Sa ugtP lethal: 6; BJeLR lethal: -4; Sa RN4220 lethal: 2.1; PrP 5UTR inh: -4

The list continues.
What do the screens show for `CCOC(=O)Cn1c(S(=O)(=O)Cc2ccccc2Cl)nc(-c2ccccc2)c1-c1ccccc1`?
Mtb hypoxia inh: 8; Autofluor counter: 11680; Sa ugtP lethal: -4; BJeLR lethal: -14; Sa RN4220 lethal: -5.8; PrP 5UTR inh: -27; Mtb hypoxia inh growth: 10

Results for CN1C(=O)C(=Cc2cn(CC(=O)N3CCCCC3)c3ccccc23)C(=O)N(C)C1=O ?
Mtb hypoxia inh: 4; Autofluor counter: 4056; Sa ugtP lethal: 3; BJeLR lethal: -3; Sa RN4220 lethal: 4.7; PrP 5UTR inh: -17; Mtb hypoxia inh growth: 2

How did O=C(NCC1CCCN(C(=O)c2cscn2)C1)c1ccccc1Cl (stereo not drawn) do in these assays?
Mtb hypoxia inh: 9; Autofluor counter: 4695; Sa ugtP lethal: 7; BJeLR lethal: 1; Sa RN4220 lethal: 4.5; PrP 5UTR inh: -28; Mtb hypoxia inh growth: 9

What do the screens show for `O=C(CN1C(=O)C(=O)N(C2CCCC2)C1=O)Nc1ccc(OC(F)F)cc1`?
Mtb hypoxia inh: 2; Autofluor counter: 4029; Sa ugtP lethal: -2; Sa RN4220 lethal: -2.7; PrP 5UTR inh: -4; Mtb hypoxia inh growth: 4

Results for Cc1cccc(NC(=O)COC(=O)CC2CCCC2)c1C ?
Mtb hypoxia inh: 6; Autofluor counter: 6862; Sa ugtP lethal: 8; Sa RN4220 lethal: 3.6; PrP 5UTR inh: -15; Mtb hypoxia inh growth: -1

What do the screens show for `O=C(Nc1ccc(Cl)cc1)Nc1cnccn1`?
Mtb hypoxia inh: 1; Autofluor counter: 2699; Sa ugtP lethal: -3; BJeLR lethal: -2; Sa RN4220 lethal: -0.9; PrP 5UTR inh: -15; Mtb hypoxia inh growth: 2

Results for CCNS(=O)(=O)c1ccc(CCC(=O)Nc2cc(Cl)ccc2Oc2ccccc2)cc1 ?
Mtb hypoxia inh: 2; Autofluor counter: 8791; Sa ugtP lethal: -18; BJeLR lethal: -15; Sa RN4220 lethal: 3.6; PrP 5UTR inh: 0; Mtb hypoxia inh growth: 0

How did Cc1cc(C)c(C)c(S(=O)(=O)N2CCC(C(=O)Nc3ccccc3N3CCOCC3)CC2)c1C do in these assays?
Mtb hypoxia inh: -10; Autofluor counter: 3394; Sa ugtP lethal: 0; BJeLR lethal: -10; Sa RN4220 lethal: 4.2; PrP 5UTR inh: 7; Mtb hypoxia inh growth: -8

What do the screens show for `O=C(Nc1ncc(Cc2cccc(Cl)c2)s1)C1=NCCN1`?
Mtb hypoxia inh: 5; Autofluor counter: 6073; Sa ugtP lethal: 4; BJeLR lethal: -2; Sa RN4220 lethal: -2.8; PrP 5UTR inh: -26; Mtb hypoxia inh growth: 4

Results for CCC(C)(C)NC(=O)Cc1ccc(Cl)cc1 ?
Mtb hypoxia inh: 1; Autofluor counter: 3814; Sa ugtP lethal: 3; BJeLR lethal: -2; Sa RN4220 lethal: 2.8; PrP 5UTR inh: -3; Mtb hypoxia inh growth: 4

Results for C=CCn1c(SCC(=O)NCc2ccccc2)nnc1-c1cc(Br)ccc1O ?
Mtb hypoxia inh: 3; Autofluor counter: 20682*; Sa ugtP lethal: -9; BJeLR lethal: -4; Sa RN4220 lethal: 4.0; PrP 5UTR inh: -25; Mtb hypoxia inh growth: 2

Results for COc1ccccc1N1CCN(/N=C/c2cc(Br)ccc2F)CC1 ?
Autofluor counter: 3059; BJeLR lethal: -6; PrP 5UTR inh: -60

Results for N=c1n(CC(=O)c2cccc([N+](=O)[O-])c2)c2ccccc2n1Cc1ccccc1 ?
Mtb hypoxia inh: 3; Autofluor counter: 4001; Sa ugtP lethal: -3; BJeLR lethal: -5; Sa RN4220 lethal: -9.3; PrP 5UTR inh: -6; Mtb hypoxia inh growth: 2

How did COc1ccc(C(=O)OCC(=O)NC2CCCC2)c(OC)c1 do in these assays?
Mtb hypoxia inh: 7; Autofluor counter: 3032; Sa ugtP lethal: -3; BJeLR lethal: -2; Sa RN4220 lethal: -0.4; PrP 5UTR inh: 0; Mtb hypoxia inh growth: -2

Results for Cc1cccc(N2CCN(C(=O)Cc3ccc(-n4c(=O)[nH]c5ccsc5c4=O)cc3)CC2C)c1 (stereo not drawn) ?
Autofluor counter: 9623; BJeLR lethal: -8; PrP 5UTR inh: -9

How did CCOc1ccc(C(=O)NC(=S)Nc2ccccc2N2CCOCC2)cc1Br do in these assays?
Mtb hypoxia inh: 5; Autofluor counter: 2109; Sa ugtP lethal: 9; BJeLR lethal: -4; Sa RN4220 lethal: 1.0; PrP 5UTR inh: -3; Mtb hypoxia inh growth: 4

What do the screens show for `O=C(NCc1nc2ccccc2[nH]1)C1=CC(C2CC2)CC(OCc2ccc(CO)cc2)O1` (stereo not drawn)?
Mtb hypoxia inh: -6&3; Sa ugtP lethal: -7&-15; Sa RN4220 lethal: -4.0&-1.0; Mtb hypoxia inh growth: 3&-10

Results for COc1cc2c(cc1OC)CN(CC(=O)Nc1ccc(C)c(C)c1)CC2 ?
Mtb hypoxia inh: 1; Autofluor counter: 3619; Sa ugtP lethal: -2; BJeLR lethal: 5; Sa RN4220 lethal: -2.7; PrP 5UTR inh: -9; Mtb hypoxia inh growth: 4

How did COc1ccc(C2=NCCn3nc4cc([N+](=O)[O-])ccc4c32)cc1 do in these assays?
Mtb hypoxia inh: -4; Autofluor counter: 3278; Sa ugtP lethal: -8; BJeLR lethal: 14; Sa RN4220 lethal: 2.8; PrP 5UTR inh: -28; Mtb hypoxia inh growth: -1
